Rango-impB inh = qHTS Assay for Inhibitors of Rango (Ran-regulated importin-beta cargo) - Importin beta complex formation; Potency, µM (doses to about 92.2 µM), for the others: at the highest dose inhibition of complex formation; 0.031% of 340,000 active; Rango CFP/YFP FRET sensor + importin beta, 45 min; Importin subunit beta-1 (Homo sapiens), Q14974; active = rising FRET ratio curve, often small or poorly fitted; inconclusive = mostly compound fluorescence or quenching in the first reads; inactive = flat curves in all reads;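 also: potency is read from the fitted curve at half-maximal effect; 0% = DMSO wells and 100% = buffer wells lacking importin beta; nearly all actives have a fitted effect of over 15% in size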
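FRET biosensor (snurportin 1 IBB flanked by EYFP and cerulean), 50 nM, with compound 5 min, then 0.125 microM importin beta in PBS, 1 mM DTT, 0.02% Tween-20, 0.1% BSA. CFP/YFP ratio read after 45 min at room temperature; pre-read flags interference.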
Rango dissoc inh = qHTS Assay for Inhibitors of RanGTP induced Rango (Ran-regulated importin-beta cargo) - Importin beta complex dissociation. Snurportin-1 (Homo sapiens) + GTP-binding nuclear protein Ran (Homo sapiens) + Importin …. Biochemical FRET Rango-importin beta, RanGTP-induced dissociation. Potency, µM (top dose mostly 46.1 µM), without a hit: at the highest dose activity change, negative = inhibition. 0.071% of 340,000 active; active means falling FRET ratio curve, often poorly fitted, with flat reads before Ran was added; inconclusive means other falling curves, or compound fluorescence or quenching; inactive means flat or rising ratio curve;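 also: potency is read from the fitted curve at half-maximal effect; % of control where 0% means no effect; nearly all actives have a fitted effect of over 45% in size; -100% = wells without RanGTP and RCC1; the record marks most hits as doubtful in a second field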
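Recombinant Rango FRET biosensor (EYFP–snurportin 1 IBB–cerulean CFP10) at 0.1 uM premixed with 0.25 uM importin beta in PBS, 1 mM DTT, 0.02% Tween-20, 0.1% BSA. Compound added 5 min; RanGTP-RCC1 (0.6 uM Ran, 2 mM GTP, 0.2 uM RCC1) then triggers release, read at 45 min.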
miR-21 reporter = qHTS Assay for Modulators of miRNAs and/orActivators of miR-21. Potency, µM (doses to about 38.3 µM), for the others: top-dose reporter change, positive = more light. AID 2288, 2010. 340,000 tested, under 10 active. HeLa miR-21 FLuc reporter, luciferase, 48 h; active = well fitted rising curve with a large enough effect; inconclusive = small, poorly fitted or top-dose-only effect; inactive = no such curve, though single readings can be large or run the other way;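 also: % of control where 0% means no effect; miR-21 action dims this reporter so a rising signal means less miR-21 action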
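Compounds were titrated across several concentrations (up to approximately 40 uM) and incubated 48 hours with HeLa miR-21-FLuc reporter cells (miR-21 target sequence downstream of FLuc, endogenous miR-21). Readout was firefly luciferase luminescence after lytic detection reagent.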
GLA inh pH 4.5 = qHTS Assay for Inhibitors of Human alpha-Galactosidase at pH 4.5 | purified enzyme, 4-MU-alpha-Gal fluorescence, pH 4.5 | activity change, negative = inhibition, % at 105 µM | 230,000 tested, under 10 active | AID 1467, 2008; inconclusive = small, poorly fitted or top-dose-only inhibition, or a rising curve; inactive = flat fitted curve, though single readings scatter; no compound was filed as active;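 also: 0% = full activity with enzyme and -100% = basal without enzyme; dose as in the result columns while the protocol names 77 µM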
Target sequence (P06280 whole entry, looked up): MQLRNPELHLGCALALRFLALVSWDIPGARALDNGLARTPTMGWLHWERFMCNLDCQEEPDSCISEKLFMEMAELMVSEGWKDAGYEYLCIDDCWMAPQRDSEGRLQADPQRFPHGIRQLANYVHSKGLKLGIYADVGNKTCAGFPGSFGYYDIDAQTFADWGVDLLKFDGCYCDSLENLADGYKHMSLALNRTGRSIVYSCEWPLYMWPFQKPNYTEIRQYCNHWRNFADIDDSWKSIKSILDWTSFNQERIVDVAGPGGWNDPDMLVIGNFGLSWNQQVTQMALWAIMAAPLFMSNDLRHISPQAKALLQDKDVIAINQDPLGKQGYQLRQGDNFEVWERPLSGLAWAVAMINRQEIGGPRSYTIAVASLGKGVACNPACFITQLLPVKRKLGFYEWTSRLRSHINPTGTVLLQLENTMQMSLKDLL
Numbers without * were called inactive; ? = inconclusive; . = no result given. A portion of the library; count on the stated rates, not on these rows.

Rango-impB inh,Rango dissoc inh,smiles,miR-21 reporter,GLA inh pH 4.5
-2.7%,-1%,COc1ccccc1NC(=O)C(C)Sc1nnnn1C (configuration not stated),-4%,-15
0.0%,2%,Cc1ccc2cccc(NC(=S)NC(=O)c3ccn(C)n3)c2n1,-14%,-1
2.8%,4%,CCNC(=S)NNc1nnc(-c2ccccc2)c(-c2ccccc2)n1,5%,.
3.3%,6%,CC(Oc1ccc(Br)cc1)C(=O)NNC(=O)CCN1CCN(c2ccccc2)CC1 (configuration not stated),.,.
1.3%,1%,Cn1c(=O)c2c(SCc3ccccn3)nc(C3CC3)nc2n(C)c1=O,0%,-8
-0.3%,2%,CCCCN1C(N)=NC[C@@H]1CCCCN,.,.
-4.7%,?,O=C(/C=C/NNC(=O)c1ccccc1)c1ccc(Br)cc1,-10%,-12
0.4%,-3%,CCOc1ccccc1N1CCN(C(=O)c2ccc(S(=O)(=O)Nc3ccccc3)cc2)CC1,.,.
-0.9%,18%,COc1ccc(C2CCCCCN2Cc2nc3ccccc3c(=O)n2CC(N)=O)cc1 (configuration not stated),4%,.
0.9%,0%,CCOc1ccccc1NC(=O)c1cccc(NC(=O)C2CCCC2)c1,6%,.
-3.6%,-2%,Cc1nc(/C(N)=N/OC(=O)c2ccccc2Cl)c(C(F)(F)F)o1,-58%,1
-1.2%,2%,COc1ccc2cc3cc(C(=O)NCc4cccs4)oc3nc2c1,-12%,19
-1.6%,11%,Fc1ccc(-n2cc(-c3ccccc3)c3c(NN4CCOCC4)ncnc32)cc1,-24%,2
-0.5%,11%,C[C@H](CO)N1C[C@H](C)[C@@H](CN(C)S(=O)(=O)c2cccs2)Oc2ccc(NC(=O)C3CC3)cc2C1=O,.,.
2.5%,11%,Cc1ccc(-n2ncc3c(=O)[nH]c(SCC(=O)N4CC(=O)Nc5ccccc54)nc32)cc1,.,.
-5.1%,2%,O=C(c1ccc(F)cc1)C1CCN(C(=O)c2c(F)cccc2F)CC1,4%,.
0.9%,5%,Cc1cc(C(=O)OCC(=O)NCCC(C)C)c2ccccc2n1,-1%,-20
-5.0%,-6%,Cc1cccc(C)c1OCC(=O)NCC1COc2ccccc2O1 (configuration not stated),.,.
0.2%,-4%,Cc1cccc(N(CC(=O)N/N=C/c2ccccc2C(=O)O)S(C)(=O)=O)c1C,0%,-4
0.4%,25%,Cc1ccc2c3c1C(=O)C(=O)N3C(C)(C)CC2C (configuration not stated),-1%,-2
5.1%,-4%,Cc1ccc(NC(=O)c2nc[nH]c2C(=O)NC2CCN(C(=O)OC(C)(C)C)CC2)cc1,.,.
-0.9%,0%,COc1cccc(CNC(=O)c2ccc(Cl)c(S(=O)(=O)N3CCOCC3)c2)c1,.,.
1.0%,-4%,CCc1noc(C)c1C(=O)OCC(=O)N(C)c1c(N)n(Cc2ccccc2)c(=O)[nH]c1=O,.,.
-3.7%,-22%,O=C(Cc1c(F)cccc1Cl)N(Cc1ccccc1)c1ccccn1,0%,2
2.3%,-12%,NNc1nc2sc3c(c2c(=O)[nH]1)CCc1ccccc1-3,-2%,0
-0.9%,0%,COc1ccc(CCNC(=O)C(C)SCc2ccccc2)cc1 (configuration not stated),-8%,6
-3.5%,-11%,COc1cc(OC)c2c(c1)OC(=O)CC2c1ccc(C)cc1 (configuration not stated),.,-6
-0.5%,-20%,CSc1nnc(C)c(=O)n1COC(=O)COc1ccccc1F,-2%,-10
?,-14%,CCS(=O)(=O)N1CCC(C(=O)NCCCN2CCCCCC2)CC1,-8%,-2
0.1%,11%,Cn1c(CC(=O)Nc2ccccc2)nnc1SCCOc1ccccc1,-32%,9

A draw from above in order of number of heavy atoms, highest first.
Rango-impB inh,Rango dissoc inh,smiles,miR-21 reporter,GLA inh pH 4.5
0.2%,-4%,Cc1cccc(N(CC(=O)N/N=C/c2ccccc2C(=O)O)S(C)(=O)=O)c1C,0%,-4
1.3%,1%,Cn1c(=O)c2c(SCc3ccccn3)nc(C3CC3)nc2n(C)c1=O,0%,-8
2.3%,-12%,NNc1nc2sc3c(c2c(=O)[nH]1)CCc1ccccc1-3,-2%,0

Carrying on:
Rango-impB inh,Rango dissoc inh,smiles,miR-21 reporter,GLA inh pH 4.5
3.1%,4%,CCOC(=O)C1CCCN(Cc2ccccc2OCC)C1 (configuration not stated),-8%,9
-2.4%,-9%,COc1cc(C#CC#CCN2CCCCC2)ccc1O,-9%,-4
-3.7%,-1%,COc1ccc(-n2nc3cc(N)c(Br)cc3n2)cc1,-56%,.
3.3%,27%,N=C1C(c2nc3ccccc3s2)=C(O)CN1C1CCCCC1,-34%,2
-0.7%,1%,CSc1cccc(NC(=S)NCCCO)c1,-7%,-1
0.9%,19%,O=C(c1ccc(Cl)cc1)N1CCN(CCc2ccccn2)CC1,1%,.
-1.5%,-12%,CN1OC(CC(=O)O)N(c2ccc(Cl)cc2)C1=O (configuration not stated),1%,2
?,-10%,CCOC(=O)C1CCN(C(=O)c2cc(C(C)(C)C)nn2Cc2ccccc2)CC1,-5%,-7
-0.3%,0%,Cc1c(NC(=O)c2cc(C3CC3)on2)c(=O)n(-c2ccccc2)n1C,-1%,2
-0.9%,-4%,Cc1ccc(CN(Cc2cccnc2)C(=S)Nc2cc(Cl)ccc2C)cc1,12%,0
5.3%,22%,O=C(CCc1ccc(S(=O)(=O)NC2CCCCC2)cc1)NCc1cccnc1,-11%,-3
0.7%,-14%,O=C(O)C(Cc1ccccc1N(CCO)CCO)N1C(=O)c2ccccc2C1=O (configuration not stated),.,.
-0.9%,-3%,COc1ccc(C(=O)NC2CCN(CC(=O)Nc3cccc(C)c3)CC2)cc1OC,-6%,-3
0.0%,10%,COc1ccc(-c2cc(-c3n[nH]c(=S)n3-c3ccccc3OC)[nH]n2)cc1,-35%,3
-0.5%,9%,O=C(O)C(CCCCN1C(=O)C2C3C=CC(C3)C2C1=O)N1C(=O)C2C3C=CC(C3)C2C1=O (configuration not stated),0%,1
-0.4%,6%,O=C(c1ccccc1)c1c[nH]c(C(=O)NNc2ccccc2)c1,13%,-3
-1.2%,12%,COc1ccc(/C=C2\SC(=O)N(CC(=O)NNC(=O)c3ccccc3O)C2=O)cc1OC,-9%,-21
?,?,COC(=O)c1cc2c(C)c(C)c3ccccn3c-2c1C(=O)OC,2%,4
2.4%,16%,O=C1COc2ccc(C(=O)CSc3nnc(-c4cccs4)n3Cc3ccccc3)cc2N1,10%,-14
-0.7%,0%,COc1ccc(CNC(=O)C2=CC(c3ccc(OC)cc3)=NS(=O)(=O)N2C)cc1,0%,.
1.2%,-13%,O=C(C1Cc2ccccc2CN1S(=O)(=O)c1cccs1)N1CCCCC1 (configuration not stated),-1%,-4
2.2%,1%,CCOc1ccc(C2C(C(=O)c3cccs3)=C(O)C(=O)N2CCN2CCOCC2)cc1 (configuration not stated),-7%,.
2.3%,16%,COc1ccc(/C=N\NC(=O)C2CCCC2)cc1Br,2%,.
-3.7%,6%,Oc1ccc(C2C[C@H]3CC[C@@H]2C3)cc1O (some centres not stated),-7%,.
2.0%,0%,O=C(C[n+]1cc(-c2ccccc2)n2c1CCC2)N1c2ccccc2Sc2ccccc21,-2%,0
-1.3%,2%,COCCN(C(=O)Cn1nnc2ccccc21)C(C(=O)NC1CCCC1)c1ccc(OC)cc1OC (configuration not stated),-5%,0
-1.9%,-10%,C/C(Cl)=C/CSc1nc2c(c(=O)[nH]c(=O)n2C)n1C(C)C,-41%,7
3.1%,4%,C(=C\c1nc(-c2ccccc2)no1)/c1ccccc1,-65%,-2
-3.6%,17%,CCOC(=O)c1ccc(NC(=O)CN2C(=O)CSC(C)C2=O)cc1 (configuration not stated),3%,-4
-1.3%,-7%,COCCCNc1ncnc2c1sc1nc(-c3ccco3)c3c(c12)CC(C)(C)OC3,-11%,1
-3.1%,9%,C=CCOc1cccc(C(=O)N2CCCC(Nc3ccc(F)cc3)C2)c1 (configuration not stated),.,.
1.0%,0%,Nc1nc2c([N+](=O)[O-])cccc2s1,-14%,-2
-0.4%,-4%,CC(C)(C)OC(=O)N(CCc1ccccc1)Cc1cccc(OCc2cccc(NC(=O)C3CC3)c2)c1,.,.
-2.7%,11%,Cc1ccc(C(C)NC(=S)NCc2ccc(F)cc2)c(C)c1 (configuration not stated),13%,.
-1.4%,0%,NS(=O)(=O)c1ccc(NC(=S)NC(=O)c2cccs2)cc1,-14%,1
1.3%,0%,CCc1ccc(S(=O)(=O)NC(CC(=O)O)c2ccccc2)cc1 (configuration not stated),-4%,-15
3.7%,9%,Cc1ccc(CNc2ccc3c(c2)ncn3C(C)C)cc1,-78%,-6
?,?,Cn1cncc1C#Cc1c(-c2ccc(S(C)(=O)=O)cc2)sc2ccccc12,.,.
-0.2%,-11%,CCCNC(=O)c1c(N)n(-c2ccc3c(c2)OCO3)c2nc3ccccc3nc12,-5%,6
0.4%,9%,Cc1cccc[n+]1CC(=O)c1ccccc1,-4%,.
-0.9%,-5%,O=C(Nc1ccc(N2CCOCC2)c(Cl)c1)c1cc(F)c(F)cc1Cl,-12%,7
-1.4%,-11%,O=C(Nc1ccccc1)NN(C(=O)CCl)c1ccccc1,?,.
-2.2%,2%,COc1cccc(C(=O)N/N=C2\SCC(=O)N2Cc2ccc3c(c2)OCO3)c1,-12%,-3
0.3%,-12%,Cc1nc(CN2CCOCC2)cc(=O)[nH]1,-5%,-4
-2.1%,0%,CCOC(=O)C1CCN(C(=O)CN(c2cccc(OC)c2)S(=O)(=O)c2ccccc2)CC1,-2%,2
-2.0%,-22%,O=C(COC(=O)/C=C/c1ccccc1)NCc1ccccc1Cl,-3%,4
-0.6%,6%,CCOC(=O)C1CCN(CCC(=O)Nc2ccccc2)CC1,1%,0
-0.3%,0%,NNc1nc2cccnc2n(CCNc2ncc(C(F)(F)F)cc2Cl)c1=O,-9%,3
2.3%,16%,O=[N+]([O-])c1cccc(C=NN2CCCCCC2)c1,.,.
-1.3%,-2%,Cc1cc(C(=O)N/N=C/c2ccc3c(c2)OCO3)c(C)n1-c1ccc(F)cc1,-22%,0
1.2%,-11%,CC(C)n1nc(CC(=O)O)c2ccccc2c1=O,-2%,2
0.2%,-13%,COc1cc(OC)cc(-n2nc(C(=O)N3CC(C)CC(C)C3)c3ccccc3c2=O)c1 (configuration not stated),0%,-1
4.6%,-8%,COc1cc2c(cc1OC)CN(CC(=O)Nc1ccccc1C(=O)NCc1ccccc1)CC2,0%,.
-0.2%,10%,Cc1noc(C)c1COC(=O)c1cc(S(=O)(=O)N2CCOCC2)ccc1F,.,.
-1.4%,-7%,O=C(Cc1cccs1)N/N=C/C=C\c1ccccc1[N+](=O)[O-],-52%,-3
-1.3%,0%,COc1ccccc1C(=O)Nc1ccc(NC(=O)c2ccco2)c(C)c1,-32%,-19
-2.3%,-3%,COC(=O)c1cc2ccsc2n1Cc1nc(-c2ccc(Cl)cc2)oc1C,-3%,-8

Taken from above.
O=C(Nc1ccccc1)NN(C(=O)CCl)c1ccccc1 – Rango-impB inh: -1.4%
NS(=O)(=O)c1ccc(NC(=S)NC(=O)c2cccs2)cc1 – miR-21 reporter: -14%
CCc1ccc(S(=O)(=O)NC(CC(=O)O)c2ccccc2)cc1 (configuration not stated) – GLA inh pH 4.5: -15
O=C(Cc1cccs1)N/N=C/C=C\c1ccccc1[N+](=O)[O-] – Rango dissoc inh: -7%
Cc1ccc(CNc2ccc3c(c2)ncn3C(C)C)cc1 – GLA inh pH 4.5: -6
CC(C)(C)OC(=O)N(CCc1ccccc1)Cc1cccc(OCc2cccc(NC(=O)C3CC3)c2)c1 – Rango-impB inh: -0.4%
